From PubChem
GLA inh pH 4.5: inhibitors of human alpha-galactosidase A at pH 4.5; AID 1467; purified enzyme, 4-MU-alpha-Gal fluorescence, pH 4.5; activity change, negative = inhibition, % at 105 µM; 230,000 tested, under 10 active; inconclusive = small, poorly fitted or top-dose-only inhibition, or a rising curve; inactive = flat fitted curve, though single readings scatter; no compound was filed as active;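 also: 0% = full activity with enzyme and -100% = basal without enzyme; dose as in the result columns while the protocol names 77 µM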
miR-21 reporter: miR-21 reporter, rising signal. AID 2288. HeLa miR-21 FLuc reporter, luciferase, 48 h. 340,000 tested, under 10 active. Potency, µM (highest dose often 38.3 µM), without a hit: at the highest dose reporter change, positive = more light; active = well fitted rising curve with a large enough effect; inconclusive = small, poorly fitted or top-dose-only effect; inactive = no such curve, though single readings can be large or run the other way;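 also: % of control where 0% means no effect; miR-21 action dims this reporter so a rising signal means less miR-21 action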
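HeLa miR-21-FLuc reporter line, endogenous miR-21; 2000 cells/well in DMEM/10% FBS; compound titration up to ~40uM final, 48 h, 37 degree Celsius; luciferase detection reagent, 15 min lysis, CCD luminescence.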
Rango-impB inh: inhibitors of Rango-importin beta complex formation | Q14974 | Rango CFP/YFP FRET sensor + importin beta, 45 min | Potency, µM (titrated, usually from 92.2 µM), inactives show top-dose inhibition of complex formation | actives 0.031% (n = 340,000) | AID 540263; active = rising FRET ratio curve, often small or poorly fitted; inconclusive = mostly compound fluorescence or quenching in the first reads; inactive = flat curves in all reads;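 also: potency is read from the fitted curve at half-maximal effect; 0% = DMSO wells and 100% = buffer wells lacking importin beta; nearly all actives have a fitted effect of over 15% in size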
Target sequence (Q14974 whole entry, looked up): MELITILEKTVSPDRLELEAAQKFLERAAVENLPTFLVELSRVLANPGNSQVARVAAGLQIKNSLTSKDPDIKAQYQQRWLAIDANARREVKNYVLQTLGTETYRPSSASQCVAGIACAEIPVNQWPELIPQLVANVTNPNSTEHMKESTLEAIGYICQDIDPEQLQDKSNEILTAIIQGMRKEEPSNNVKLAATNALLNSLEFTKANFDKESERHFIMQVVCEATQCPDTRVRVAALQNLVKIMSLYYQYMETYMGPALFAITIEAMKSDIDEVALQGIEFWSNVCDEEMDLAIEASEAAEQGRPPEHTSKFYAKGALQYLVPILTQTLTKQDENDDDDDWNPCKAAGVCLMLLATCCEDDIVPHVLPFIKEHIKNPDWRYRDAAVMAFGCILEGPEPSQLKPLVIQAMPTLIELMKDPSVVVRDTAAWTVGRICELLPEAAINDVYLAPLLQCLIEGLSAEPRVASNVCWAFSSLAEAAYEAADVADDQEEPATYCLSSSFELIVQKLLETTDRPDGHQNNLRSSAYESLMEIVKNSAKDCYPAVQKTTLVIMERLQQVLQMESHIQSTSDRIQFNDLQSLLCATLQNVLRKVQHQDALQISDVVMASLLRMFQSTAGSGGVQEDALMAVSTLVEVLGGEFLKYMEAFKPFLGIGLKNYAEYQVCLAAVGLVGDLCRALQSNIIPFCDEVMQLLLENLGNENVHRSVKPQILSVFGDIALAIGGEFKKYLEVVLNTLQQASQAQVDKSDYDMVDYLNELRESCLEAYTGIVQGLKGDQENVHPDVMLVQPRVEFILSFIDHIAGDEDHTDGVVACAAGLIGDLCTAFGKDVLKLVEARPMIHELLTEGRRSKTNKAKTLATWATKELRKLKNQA
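FRET biosensor (snurportin 1 IBB flanked by EYFP and cerulean), 50 nM, with compound 5 min, then 0.125 microM importin beta in PBS, 1 mM DTT, 0.02% Tween-20, 0.1% BSA. CFP/YFP ratio read after 45 min at room temperature; pre-read flags interference.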
Rango dissoc inh: prevents RanGTP from dissociating the Rango-importin beta complex; O95149+P62826; Biochemical FRET Rango-importin beta, RanGTP-induced dissociation; Potency, µM (highest dose often 46.1 µM), inactives show at the highest dose activity change, negative = inhibition; actives 0.071% (n = 340,000); AID 540253; active means falling FRET ratio curve, often poorly fitted, with flat reads before Ran was added; inconclusive means other falling curves, or compound fluorescence or quenching; inactive means flat or rising ratio curve;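 also: potency is read from the fitted curve at half-maximal effect; % of control where 0% means no effect; nearly all actives have a fitted effect of over 45% in size; -100% = wells without RanGTP and RCC1; the record marks most hits as doubtful in a second field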
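Compounds preincubate 5 min with complex of recombinant Rango and importin beta in PBS with 1 mM DTT. Ran (0.6 uM) loaded with 2 mM GTP plus 0.2 uM RCC1 starts dissociation; FRET is recorded 45 min later.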
An asterisk follows results filed as active; u = inconclusive; x = no result given; & = joins results of further samples; [ ] = remark or other dose.

Under each structure: GLA inh pH 4.5, miR-21 reporter, Rango-impB inh, Rango dissoc inh
1) Cc1cc(Cl)ccc1C(=O)C1CCCN(C(=O)c2cccc(N3CCCC3=O)c2)C1 (centres undefined)
  x, -2%, 2.7%, -14%
2) CC(C(=O)c1ccc(Br)cc1)[n+]1cccc2ccccc21 (centres undefined)
  x, 7%, 0.0%, -15%
3) CC(C)N(C(=O)COC(=O)CCC(=O)c1cccs1)c1ccccc1
  x, x, 0.7%, -21%
4) COC(=O)c1c(C)oc2ccc(OC(=O)N3CCOCC3)cc12
  -6, 2%, -1.8%, 15%
5) CC(=O)Nc1ccc(S(=O)(=O)N2CCN(c3nnnn3-c3ccccc3)CC2)cc1
  -1, -1%, u, 8%
6) Cc1cc(C)nc(NC(=S)Nc2ccc(Br)cc2Cl)c1
  2, -5%, 0.0%, 8%
7) N#CCCn1cc(C(=O)Nc2ccc(C(=O)O)cc2)c(-c2cccs2)n1
  7, 0%, -1.9%, -5%
8) CC(=O)c1sc(C(C)(C)C)cc1NC(=O)CCC(=O)O
  6, -2%, 0.9%, -3%
9) COC(=O)c1[nH]c2cc(OC)ccc2c1NC(=O)CN1CCC(C(N)=O)CC1
  -9, -17%, -1.9%, -7%
10) COc1ccc(C(=O)N/N=C\c2coc3ccc(C)cc3c2=O)cc1
  x, 12%, 0.0%, 4%
11) CCOc1ccc(NC(=O)CN(C)C(=O)c2c(C)noc2C)cc1OCC
  x, x, 2.4%, 13%
12) COc1ccc2c(C#CCCO)c(-c3ccc(S(C)(=O)=O)cc3)sc2c1
  x, x, u, 1%
13) Cc1c(NC(=O)C(C)N2C(=O)c3ccccc3C2=O)c(=O)n(-c2ccccc2)n1C (centres undefined)
  -8, 1%, 1.3%, 4%
14) CC(=O)Nc1ccc(NC(=O)CCn2cnnn2)cc1
  7, -1%, -0.3%, -9%
15) O=C(O)c1cc(=O)c2c(Cl)cc(Cl)cc2[nH]1
  -3&2&-1, x, -1.0%, 1%

Down the list, from the results shown:
Nos. 9–13 in Rango dissoc inh, in turn: -7%, 4%, 13%, 1%, 4%

More entries.
Under each structure: GLA inh pH 4.5, miR-21 reporter, Rango-impB inh, Rango dissoc inh
16) CCn1c(NC(=O)Nc2cccc(C)c2C)cc2sccc21
  -14, -4%, u, u
17) Cc1ccc(CN2CCN(Cc3ccon3)CC2CCO)cc1 (centres undefined)
  -1, -1%, -2.5%, 18%
18) CC(=O)N1c2ccc(S(=O)(=O)N3CCCC3C(=O)Nc3ccc(C)cc3)cc2CC1C (centres undefined)
  x, 4%, -3.7%, -3%
19) COC(=O)C(Cc1ccc(O)cc1)NC(=O)CCC(=O)Nc1ccc(S(N)(=O)=O)cc1 (centres undefined)
  1, -2%, -4.6%, -2%
20) CC(C)(C)OC(=O)N(CCc1ccccc1)Cc1ccc(OCc2cccc(NC(=O)/C=C/c3ccccc3)c2)cc1
  x, x, -3.2%, 1%
21) CC(C)(C)c1ccc(-c2nnc(SC3CCOC3=O)n2Cc2ccccc2)cc1 (centres undefined)
  2, -14%, -5.8%, -6%
22) Cc1cnc(C=NNC(N)=S)c2cccc(N)c12
  x, x, 0.1%, 0%
23) Cn1c(/C=N/c2nc3ccccc3[nH]2)nc2ccccc21
  10, -19%, 0.7%, -18%
24) COc1ccc2[nH]cc(/C=C/c3cc[n+](C)cc3)c2c1
  x, 22%, 1.4%, u
25) O=C(NC1CCCCC1)C1CCN(S(=O)(=O)N2CCOCC2)CC1
  2, 1%, 13%, 15%
26) CC(C)CNC(=O)COC(=O)c1c2c(nc3ccccc13)CCC2
  x, 12%, u, -5%
27) CCOc1ccccc1OCCOCCN1CC(C)OC(C)C1 (centres undefined)
  6, 1%, -2.2%, 0%
28) CC1CN(C(=O)N2CCOCC2)CCN1C(=O)N1CCOCC1 (centres undefined)
  4, -1%, 0.6%, 5%
29) O=C(CC(=O)NN=Cc1ccc2c(c1)CCC2)NN=Cc1ccc2c(c1)CCC2
  x, x, -2.0%, 23%
30) CCOC(=O)c1c(Cc2ccccc2)c[nH]c1C
  -17[21.1 µM], -46%, 2.7%, 12%
31) COc1ccccc1C(=O)NC(=O)CSc1nnnn1C
  x, x, -2.5%, 0%
32) CC(C)c1ccc(NC(=O)CSc2nc(=O)n(CCN3CCOCC3)c3c2CCC3)cc1
  x, x, -3.1%, -6%
33) COc1ccc(C(=O)Nc2cccc(S(=O)(=O)NC3=NCCCCC3)c2)cc1
  x, x, -1.1%, 10%
34) CC(O)C(NS(=O)(=O)c1ccc(Cl)cc1)C(=O)OCc1cc([N+](=O)[O-])cc2c1OCOC2 (centres undefined)
  -9, 0%, 0.2%, -5%
35) COc1ccc(S(=O)(=O)N(C)CC(=O)NCCN2CCOCC2)cc1Cl
  x, 0%, -1.1%, 4%
36) CN(C)c1ccc(NC(=O)c2sc(SCC(=O)Nc3nccs3)nc2N)cc1
  -7, 0%, 9.1%, -20%
37) C=CCN1C(=O)/C(=C\c2cccc(OC(=O)c3ccco3)c2)SC1=S
  x, -8%, 8.9%, 20%
38) O=C(N/N=C1\CCSC1)c1cc(Cl)ccc1O
  5, -22%, 0.2%, -8%
39) CCOC(=O)C1=C(CC)Nc2ccccc2N=C1NC(=O)c1cc(C)on1
  x, x, -11%, u
40) NC1=NC[C@H](Cc2ccc(O)cc2)N1CCC12CC3CC(CC(C3)C1)C2
  1, u, -3.0%, -5%
41) COc1cc(-c2nccc3cc4c(cc23)OCO4)cc(OC)c1OC
  x, x, 0.7%, -15%
42) Cc1nc(NC(=O)COC(=O)c2cccs2)c(Cl)cc1Cl
  x, x, 3.4%, 11%
43) CC(=O)N1NC(=Nc2ccccc2)SC1(C)C
  -3, 14%, 2.0%, 2%
44) N#C/C(=C\c1ccc(C#N)cc1)C(=O)c1ccccc1
  -16, -3%, u, -16%
45) CN(CC(=O)N1CCN(c2ccccc2)CC1)S(=O)(=O)c1cccs1
  -9[21.1 µM], -41%, 2.5%, 10%
46) Cc1noc(NS(=O)(=O)c2ccc(NC(=O)C(C)C)cc2)c1C
  x, 0%, 3.2%, -8%
47) CCOC(=O)c1ccc(NC(=S)Nc2ccc(C)cc2)cc1
  -3, -22%, -1.0%, -23%
48) O=C(NCCN1C(=O)S/C(=C/c2cccnc2)C1=O)c1ccc(S(=O)(=O)N2CCCC2)cc1
  x, x, 0.8%, 22%
49) CCCn1nc(NC(=O)c2cccs2)c2cc3cc(C)ccc3nc21
  -8, -8%, 3.6%, 23%
50) CCCCNC(=O)C1CCC(CNS(=O)(=O)c2c(C)cc(C)cc2C)CC1 (centres undefined)
  x, -1%, -0.3%, 1%
51) CCN1CCN(CCCCOc2ccccc2F)CC1
  4, -5%, 5.6%, -3%
52) Cc1ccc(-c2nnc(CSc3nnc(COc4ccccc4)n3-c3ccccc3)o2)cc1
  3, 0%, -4.6%, -3%
53) COc1cccc(-c2ncc3ccccc3c2CO)c1
  x, x, 1.9%, -11%
54) CC(NC(=O)Nc1ccc2c(c1)OCO2)C1CCCO1 (centres undefined)
  -1, -37%, -0.2%, -14%
55) Cc1ccc(S(=O)(=O)N2CCC(=O)CC2)cc1
  x, 0%, -2.2%, -15%
56) CS(=O)(=O)Nc1ccc(C2=NN(C(=O)c3cccc(F)c3)C(c3cccs3)C2)cc1 (centres undefined)
  x, -6%, u, 0%
57) Cc1ncc(CSc2nc3ccccc3[nH]2)c(N)n1
  -12, -9%, 1.6%, 2%
58) C(=N\Nc1cc(N2CCCCC2)ncn1)/c1ccco1
  x, -84%, 6.6%, -12%
59) Cc1ccc(S(=O)(=O)N(C)c2ccc(C(=O)Nc3ccccn3)cc2)cc1
  x, x, -0.8%, -8%
60) CCOC(=O)Cn1nc(C)n(-c2ccc(C)cc2)c1=O
  -4, -4%, 5.1%, 5%
61) CCCCn1c(N)c(N(CC)C(=O)Cc2ccc(S(=O)(=O)N3CCOCC3)s2)c(=O)[nH]c1=O
  x, x, -1.8%, 0%
62) Cc1cc(F)ccc1S(=O)(=O)N1CCCOC1CNC(=O)C(=O)NC1CC1 (centres undefined)
  x, -1%, -3.2%, 0%
63) O=C(N/N=C/c1ccccc1C(=O)O)c1ccc(COc2cccc3cccnc23)cc1
  -12, -10%, 1.3%, -24%
64) Cc1cccc2cc(CN(CCN3CCCC3)C(=O)NC3CCCCC3)c(=O)[nH]c12
  -8, -11%, 0.1%, -7%
65) CC(C)Sc1nc2ccccc2n1CC(=O)NCc1ccc2c(c1)OCO2
  -4, -3%, 2.3%, 10%
66) CC(=O)N1CCC(=NNC(=O)CSc2cc(C)c(Br)cc2C)CC1
  -9, -1%, -1.3%, 10%
67) Cc1nn(-c2ccc(Cl)cc2)c(N)c1C(O)(CSc1nccn1C)C(F)(F)F (centres undefined)
  -5, -32%, -3.1%, 2%
68) COc1ccccc1N1CCN(C(=O)CCC(=O)Nc2nnc(CC(C)C)s2)CC1
  x, 3%, 1.3%, 0%
69) CCOC(=O)C1=C(C)Nc2ccccc2N=C1NC(=O)/C=C/c1ccc(OC)cc1OC
  -4, -11%, 0.2%, 3%
70) O=C(O)c1c[nH]c2cc(C(F)(F)F)ccc2c1=O
  -7, -3%, -0.2%, 3%
71) O=c1c2ccccc2nc(SCc2cccc(F)c2)n1Cc1ccco1
  4, 3%, 5.1%, 20%
72) CC(=O)c1cccc(N2C(=NC(=O)C3CC3)SC3CS(=O)(=O)CC32)c1 (centres undefined)
  x, 0%, -1.5%, 3%
73) COc1ccc(C(=O)NC2CCN(CC(=O)Nc3c(C)cccc3C)CC2)cc1OC
  x, -1%, 1.3%, 15%
74) COc1ccc2cc(CCNC(=O)c3ccco3)c(=O)[nH]c2c1
  x, -44%, 0.2%, 14%
75) O=S(=O)(/N=C(/Nc1cc(N2CCOCC2)ncn1)c1ccccc1)c1ccccc1
  1, -6%, -0.2%, 9%

(continued)
Under each structure: GLA inh pH 4.5, miR-21 reporter, Rango-impB inh, Rango dissoc inh
76) Cc1ccc(NCC2(N=Cc3ccccc3)OC(CO)C(O)C2O)cc1 (centres undefined)
  x, x, -3.6%, -1%
77) C=C[C@@H]1c2cc(C)ccc2N(S(=O)(=O)c2ccc(C)cc2)[C@H](c2ccccc2)C1(C#N)S(=O)(=O)c1ccccc1 (some centres undefined)
  x, x, -2.3%, 17%
78) CCOc1ccccc1C(=O)Nc1nnc(C(C)C)s1
  -1, -32%, -2.0%, 1%
79) Cc1cc(C)n(CC(=O)Nc2ccc3c(c2)OCO3)c(=O)c1C#N
  x, x, -1.1%, 1%
80) COc1ccc(C(=O)/C(C#N)=N/Nc2ccc([N+](=O)[O-])cc2)cc1
  -11, 23%, 4.6%, 5%
81) O=C(N/C(=C/c1cn(-c2ccccc2)nc1-c1ccccc1)C(=O)N1CCOCC1)c1ccc(Cl)cc1Cl
  -1, -8%, -1.7%, 6%
82) C=CCn1c(SCc2cc(=O)n3ccsc3n2)nc2sc(C)c(C)c2c1=O
  9, -6%, -1.5%, -14%
83) CN(C)C(=O)c1ccc(NC(=O)c2ccccc2SCC(=O)N2CCCC2)cc1
  x, x, 8.5%, -11%
84) Cc1ccc(C(C(=O)NCC2CCCO2)N(C(=O)c2snc(C(N)=O)c2N)c2ccc(C)c(C)c2)o1 (centres undefined)
  x, -1%, -1.3%, u
85) O=C(OCc1nnc(-c2ccccc2)o1)c1cn(-c2ccccc2)nc1-c1ccccc1
  -5, -9%, -0.7%, -13%
86) CS/C(=N\NC(N)=O)c1ccccc1
  4, -1%, -1.0%, -2%
87) CN1C(=O)C(C)(C)c2cc(S(=O)(=O)N3CCC(C(=O)NCc4ccc(Cl)cc4)CC3)ccc21
  x, 5%, 1.9%, 0%
88) O=C(c1cc(-c2ccccc2O)on1)N1CCCCCC1
  x, -76%, -2.9%, 9%
89) CCOC(=O)c1c(C)n(C)c2ccc(OC)c(NC(=O)CN3CCC(C(=O)OCC)CC3)c12
  -3, -8%, -2.8%, 16%

These rows are one share of the data. The share of hits here may be higher or lower than overall.
